Screening results (PubChem)
MT1-MMP act inh: MT1-MMP (human) activation inhibition; HT1080 RFP-PRO-GFP cells, GFP/RFP ratio fluorescence, overnight; percent of plate control window, DMSO zero; GFP/RFP ratio change, % at 20 µM; 360,000 tested, 0.061% active; AID 651647;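 active means GFP/RFP ratio change of at least 30% with cell ATP level not reduced by more than half and red fluorescence within 50% of control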; further: strong numbers were not always called active
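Material: RFP-PRO-GFP reporter HT1080 cells. Dosing: single-point 20 µM compound, 1% DMSO. Controls: DMSO and RFP-L50D-GFP cell wells. Timing: cells overnight before dosing, compound overnight, 37 °C, 5% CO2. Measure: GFP/RFP fluorescence ratio.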
Rce1 inh: yeast Ras-converting enzyme inhibition; Q03530; yeast membranes, quenched prenylated peptide cleavage fluorescence; calls only; 290,000 tested, 0.27% active;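 active means fall in fluorescence gain of 50% or more versus controls, with final raw signal at or below 3038400; inconclusive means same 50% fall but final raw signal above 3038400; inactive means fall in fluorescence gain under 50%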;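 further: plate controls were neutral control wells for no effect and wells lacking membranes for full effect; tested at 10 µM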
Env fusion inh: HIV envelope-mediated fusion inhibition | inhibition, % at 12.3 µM | AID 651610 | HeLa-JRFL Env/CEM21 cell fusion, luciferase | 360,000 tested, 1.1% active;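 active means mean replicate inhibition score of at least 50 and every replicate individually at or above 50; inconclusive means only one of the two criteria met; inactive means mean below 50 and not all replicates reaching 50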;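 further: 0% = plate neutral controls and 100% = maraviroc near 300 nM; one replicate is shown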
PABP FP inh: blocks human PABP binding to poly(A) RNA; inhibition, % at 35 µM; P11940; 290,000 tested, 1% active; fluorescence polarization;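 active means 50% or more with normal probe brightness, or confirmed in later tests; inconclusive means above 50% with abnormal brightness, or retests that disagree; inactive means below 50% or failed in later tests; about a fifth of its hits are not listed in these tables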;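 further: calls also rest on retests at 20 µM and on dose response follow-up; controls were probe without protein and protein plus probe with vehicle; some compounds called inactive have numbers as strong as hits; many hits fall short of the cut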
Target sequence (P11940 whole entry, looked up): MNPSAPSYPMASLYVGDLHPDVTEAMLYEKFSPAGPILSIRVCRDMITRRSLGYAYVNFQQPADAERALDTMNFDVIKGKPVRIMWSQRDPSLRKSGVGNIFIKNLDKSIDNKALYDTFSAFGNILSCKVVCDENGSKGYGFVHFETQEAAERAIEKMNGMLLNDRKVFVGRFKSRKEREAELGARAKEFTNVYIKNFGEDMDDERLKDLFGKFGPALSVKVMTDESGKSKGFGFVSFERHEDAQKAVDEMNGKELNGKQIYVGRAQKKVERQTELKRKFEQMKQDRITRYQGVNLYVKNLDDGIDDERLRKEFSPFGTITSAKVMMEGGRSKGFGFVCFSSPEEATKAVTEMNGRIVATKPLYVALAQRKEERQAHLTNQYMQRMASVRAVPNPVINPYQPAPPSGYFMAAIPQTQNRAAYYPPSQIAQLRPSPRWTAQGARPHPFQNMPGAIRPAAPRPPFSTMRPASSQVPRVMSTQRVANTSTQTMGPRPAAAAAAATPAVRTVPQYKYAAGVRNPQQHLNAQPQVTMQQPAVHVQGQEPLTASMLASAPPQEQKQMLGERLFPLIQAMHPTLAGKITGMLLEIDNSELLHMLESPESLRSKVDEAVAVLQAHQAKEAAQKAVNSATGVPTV
CSC inhib: cancer stem cell inhibition. cancer stem cell-like cells viability, luminescence. inhibition, % at 7.5 µM. 300,000 tested, 1.1% active;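 active means mean at 75% or more and at least half the replicates too; inconclusive means mean and replicates disagree; tested in HMLE shEcad cells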;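 further: 0% = median of negative and 100% = median of positive control wells; the first replicate is given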
UUG fidelity: alters start codon recognition fidelity in yeast; activity score, % at 18.7 µM; S. cerevisiae UUG-firefly luciferase reporter, luminescence/redox ratio; 350,000 tested, 0.13% active;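 active means replicate mean at a twofold rise or more, about +100% in these data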;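 further: firefly luciferase made from a UUG start codon reports start codon fidelity; reporter light over untreated wells divided by growth signal over untreated wells; some hits fall short of that in this replicate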
eIF4H inh: inhibitors of RNA binding by human eIF4H; 290,000 tested, 0.94% active; inhibition, % at 35 µM; eIF4H fluorescence polarization binding assay;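 active means 50% or more with normal probe brightness, or confirmed in later tests; inconclusive means above 50% with abnormal brightness, or retests that disagree; inactive means below 50% or failed in later tests; about a fifth of its hits are not listed in these tables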;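 further: calls also rest on retests at 20 µM and on dose response follow-up; 0% = protein and probe with vehicle and 100% = probe without protein; strong numbers were not always called active; many hits fall short of the cut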
MT1-MMP act inh RFP: also measured in MT1-MMP act inh; calls as there; RFP signal change, %; measured here: RFP expression control read;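 0 = vehicle wells; hits needed this value within 50% of zero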
Active calls of the source: *; i = inactive; ? = inconclusive; · = not tested or not shown.

Letters: A = MT1-MMP act inh; B = MT1-MMP act inh RFP; C = Rce1 inh; D = Env fusion inh; E = PABP FP inh; F = CSC inhib; G = UUG fidelity; H = eIF4H inh
mol: Cc1ncoc1C(=O)N1CCc2c([nH]c3ccccc23)C1C(C)(C)C (stereo not given)
  A: -3; B: -2; C: i; D: 23; E: 5; F: 1; G: ·; H: 2

mol: O=C(OCc1cccc([N+](=O)[O-])c1)c1cnccn1
  A: 2; B: 2; C: i; D: -9; E: 11; F: -15; G: ·; H: -6

mol: O=C(NCc1ccc(Cl)cc1)C1CCCN(S(=O)(=O)c2cnc[nH]2)C1 (stereo not given)
  A: -3; B: 5; C: i; D: -35; E: -1; F: -7; G: -7; H: -6

mol: C[C@@H]([C@@H](O)c1ccccc1)N(C)C(=O)C(N)Cc1ccccc1 (stereo not given in full)
  A: 17; B: 2; C: i; D: 3; E: -3; F: 9; G: 1; H: -10

mol: COc1c(C)cc(Br)cc1C(=O)Nc1ccccc1C
  A: 0; B: -1; C: i; D: 7; E: 1; F: 26; G: ·; H: 1

mol: OCC1CCCN(C(=S)NCCc2ccccc2)C1 (stereo not given)
  A: -3; B: 1; C: ·; D: -65; E: 7; F: 7; G: -20; H: 7

mol: CN(C)CCNC(=O)c1ccc(Cl)s1
  A: 9; B: 8; C: i; D: ·; E: 34; F: 5; G: ·; H: 1

mol: COc1ccc(N2Cc3cccc(C(=O)O)c3C2=O)cc1
  A: 3; B: 8; C: i; D: ·; E: 68*; F: 3; G: -11; H: 93*

mol: CC1(c2ccc(Cl)cc2)NC(=O)N(CC(=O)N2CCc3ccccc32)C1=O (stereo not given)
  A: 4; B: -2; C: ·; D: -3; E: ·; F: -34; G: 6; H: ·

mol: CCN(c1ccccc1)S(=O)(=O)c1nnc(NC(=O)C(C)C)s1
  A: 0; B: -5; C: i; D: 0; E: 3; F: -4; G: -18; H: -9

mol: O=C1c2ccccc2C(=O)N1Cc1cc(Cl)c(O)c([N+](=O)[O-])c1
  A: 5; B: 2; C: i; D: 10; E: 21; F: 13; G: -15; H: 3

mol: Cc1c(C(=O)N2CCCC2)c(S(=O)(=O)NCCc2ccccc2)c(C)n1C
  A: 0; B: 4; C: i; D: -6; E: 1; F: 16; G: -6; H: -1

mol: O=C(CC1(O)C(=O)Nc2ccccc21)c1ccc2c(c1)OCO2 (stereo not given)
  A: 17; B: 1; C: i; D: ·; E: -1; F: 0; G: 19; H: -11

mol: CCCc1nc2c(sc3nc4c(cc32)COC(C)(C)C4)c(=O)o1
  A: -1; B: 3; C: i; D: 3; E: 4; F: 2; G: ·; H: 8

mol: O=C(NNC(=O)c1ccccc1O)c1ccc(Cl)c(S(=O)(=O)N2CCc3ccccc32)c1
  A: 14; B: -21; C: i; D: 20; E: ·; F: 10; G: ·; H: ·

mol: Cc1cccc(OCC(=O)NNS(=O)(=O)c2ccccc2F)c1
  A: -2; B: -6; C: i; D: -6; E: 0; F: ·; G: 2; H: -6

mol: CCC(=O)N1CCc2cc(S(=O)(=O)NC(C(=O)NCc3ccc(C)cc3)C(C)C)ccc21 (stereo not given)
  A: 12; B: 22; C: i; D: -87; E: -10; F: ·; G: -6; H: -8

mol: COc1ccc(Nc2nnc(SCC(=O)NC(=O)Nc3ccc4c(c3)OCCO4)s2)cc1
  A: 1; B: 0; C: i; D: -15; E: -4; F: 19; G: ·; H: -7

mol: Cc1ccc(C(=O)NCc2cccnc2)o1
  A: 0; B: -1; C: i; D: 5; E: 0; F: 0; G: -5; H: -5

mol: NS(=O)(=O)c1ccc(CCNC(=O)CN2CCN(c3ccc(F)cc3)CC2)cc1
  A: -11; B: -25; C: i; D: 64*; E: 9; F: -8; G: -13; H: -3

mol: COc1ccc(-c2nc(CS(=O)(=O)CC(=O)NCc3ccc(F)cc3)c(C)o2)cc1
  A: 1; B: 1; C: i; D: 8; E: -1; F: 5; G: -4; H: 4

mol: CCCCn1c(N)c(N(CC(C)C)C(=O)C2CC(=O)N(c3ccc4c(c3)OCCO4)C2)c(=O)[nH]c1=O (stereo not given)
  A: 0; B: 2; C: i; D: 3; E: ·; F: -6; G: 0; H: ·

mol: CC1CC(C)CN(S(=O)(=O)c2ccc3c(c2)oc(=O)n3CC(=O)NCCCOC(C)C)C1 (stereo not given)
  A: -1; B: -7; C: i; D: -8; E: 8; F: -15; G: -4; H: 2

mol: CN(C)CCCNCCNC(=O)/C=N\O
  A: 1; B: 4; C: i; D: -73; E: 42; F: 4; G: -1; H: 12

mol: COc1cc(-c2nc(S(=O)(=O)c3ccc(Cl)cc3)c(N3CCOCC3)o2)cc(OC)c1OC
  A: -5; B: -10; C: i; D: 6; E: 2; F: -17; G: -7; H: -3

mol: CCN(C(=O)CCc1nc(-c2ccc(OC)cc2)no1)c1cc(OC)ccc1OC
  A: -16; B: -29; C: i; D: ·; E: 1; F: -8; G: 4; H: 13

mol: Cc1c(C(O)CN2CCN(Cc3ccc4c(c3)OCO4)CC2)c2ccccc2n1C (stereo not given)
  A: -9; B: 0; C: i; D: ·; E: 81*; F: 5; G: -2; H: 82*

mol: COc1ccc(C(=O)N2CCCC(CCC(=O)NCc3ccccc3F)C2)c(OC)n1 (stereo not given)
  A: 4; B: 1; C: i; D: -6; E: 16; F: -7; G: 0; H: -10

mol: O=C(COc1cccnc1[N+](=O)[O-])NCCc1ccc(Cl)cc1
  A: 1; B: 0; C: i; D: 4; E: -1; F: -15; G: -12; H: 5

mol: COCCNC(=O)c1c(N)n(/N=C/c2ccc(F)cc2)c2nc3ccccc3nc12
  A: 1; B: 3; C: i; D: 5; E: -12; F: -2; G: -9; H: -10

mol: CCOP(=O)(C1=C(O)C(=O)C(C(C)(C)C)=CC1=O)c1ccccc1 (stereo not given)
  A: 4; B: 6; C: ·; D: 28; E: -17; F: ·; G: ·; H: 6

mol: COc1ccc2nc(NC(=O)C3CCN(S(=O)(=O)c4cnc[nH]4)CC3)sc2c1
  A: 1; B: -7; C: i; D: 9; E: 1; F: -9; G: -20; H: -2

mol: CCCC(C(=O)NC1CCCC1)N(CCCN1CCOCC1)C(=O)c1snc(C(N)=O)c1N (stereo not given)
  A: 1; B: 4; C: i; D: ·; E: -6; F: -9; G: -13; H: -12

mol: Cc1cccc(N(C(=O)c2nsc(Cl)c2Cl)C(C(=O)NC2CCCC2)c2ccc(O)cc2)c1 (stereo not given)
  A: -9; B: -6; C: i; D: 10; E: 11; F: 12; G: -3; H: -4

mol: COc1ccc(NC(=O)C2CCN(c3nc(-c4ccc(OC)cc4)no3)CC2)cc1
  A: -5; B: -14; C: i; D: 12; E: -11; F: -13; G: -11; H: 3

mol: O=C(NNS(=O)(=O)c1ccc(F)cc1)c1sccc1-n1cccc1
  A: 6; B: 0; C: i; D: -36; E: -10; F: 4; G: -16; H: 5

mol: O=C(c1ccc(Cl)c(S(=O)(=O)N2CCCCC2)c1)N1CCN(c2ccccc2)CC1
  A: -1; B: -25; C: i; D: 26; E: -16; F: -9; G: -3; H: -7

mol: CCn1c(SCC(=O)Nc2ccc(-c3nc4ccc(C)cc4s3)cc2)nnc1-c1ccccc1
  A: ·; B: ·; C: i; D: ·; E: -2; F: 9; G: ·; H: 5

mol: CC1CCN(c2c(NCC3CCC(C(=O)NCCc4ccc(Cl)cc4)CC3)c(=O)c2=O)CC1 (stereo not given)
  A: ·; B: ·; C: i; D: 11; E: 11; F: ·; G: ·; H: 1

mol: COc1ccc(S(=O)(=O)N2c3ccccc3OCC2C)cc1 (stereo not given)
  A: 2; B: -11; C: i; D: 3; E: 3; F: 5; G: ·; H: 2

mol: COc1ccc(-c2[nH]c(-c3ccccc3)nc2SCC(=O)NCc2ccco2)cc1OC
  A: 7; B: 0; C: i; D: -86; E: 1; F: 13; G: -14; H: 0

mol: CCc1nc2c(OCc3ccccc3C)cccn2c1N(C)C(=O)c1ccco1
  A: -3; B: 5; C: ·; D: -9; E: ·; F: ·; G: -10; H: ·

mol: COC(=O)c1cccc(NC(=O)c2ccc(S(=O)(=O)N(C)c3ccccc3OC)cc2)c1
  A: -3; B: -15; C: ·; D: 15; E: ·; F: ·; G: -17; H: ·

mol: Cc1c(C(=O)N(C)Cc2ccc(F)cc2)sc(=O)n1Cc1ccccc1C#N
  A: 5; B: -3; C: ·; D: -5; E: ·; F: ·; G: -16; H: ·

mol: Cc1ccc(CCN2CC(C(=O)NCCCN3CCOCC3)CC2=O)cc1 (stereo not given)
  A: 1; B: 0; C: i; D: ·; E: -8; F: -24; G: -7; H: -10

mol: CC1CCN(S(=O)(=O)c2nnc(NC(=O)COc3ccccc3)s2)CC1
  A: -4; B: 2; C: i; D: 3; E: -11; F: 13; G: -14; H: -14

mol: COC(=O)C1=C(C)N(CC2CC2)C(=O)N[C@H]1c1ccccc1
  A: -3; B: 5; C: i; D: 2; E: ·; F: -1; G: -19; H: ·

mol: Cc1cc(/C=C2\NC(=S)N(C)C2=O)ccc1N1CCCC1
  A: -108; B: 3; C: i; D: -17; E: ?; F: 5; G: -18; H: ?

mol: CC(Oc1cccc(Cl)c1)C(=O)NCc1ccc(S(N)(=O)=O)cc1 (stereo not given)
  A: 3; B: 1; C: i; D: 11; E: -2; F: -5; G: ·; H: 10

mol: COc1ccc(S(=O)(=O)NCCCc2ccccc2)cc1
  A: -1; B: 0; C: ·; D: 3; E: ·; F: 23; G: ·; H: ·

Part of the list above in another layout:
Cc1cc(/C=C2\NC(=S)N(C)C2=O)ccc1N1CCCC1
  MT1-MMP act inh: -108; MT1-MMP act inh RFP: 3; Rce1 inh: i; Env fusion inh: -17; PABP FP inh: ?; CSC inhib: 5; UUG fidelity: -18; eIF4H inh: ?

CC(Oc1cccc(Cl)c1)C(=O)NCc1ccc(S(N)(=O)=O)cc1 (stereo not given)
  MT1-MMP act inh: 3; MT1-MMP act inh RFP: 1; Rce1 inh: i; Env fusion inh: 11; PABP FP inh: -2; CSC inhib: -5; UUG fidelity: ·; eIF4H inh: 10

COc1ccc(S(=O)(=O)NCCCc2ccccc2)cc1
  MT1-MMP act inh: -1; MT1-MMP act inh RFP: 0; Rce1 inh: ·; Env fusion inh: 3; PABP FP inh: ·; CSC inhib: 23; UUG fidelity: ·; eIF4H inh: ·

(next part)
Letters: A = MT1-MMP act inh; B = MT1-MMP act inh RFP; C = Rce1 inh; D = Env fusion inh; E = PABP FP inh; F = CSC inhib; G = UUG fidelity; H = eIF4H inh
mol: CCOc1ccccc1C(=O)N1CCC(n2nnc3cc(C)ccc32)CC1
  A: -4; B: -4; C: i; D: 14; E: 0; F: -7; G: -11; H: -8

mol: Cc1ccccc1NC(=O)COC(=O)c1ccc(S(C)(=O)=O)c([N+](=O)[O-])c1
  A: -3; B: -1; C: ·; D: 18; E: -6; F: -8; G: -15; H: -12

mol: COCC(=O)N(C)c1nnc(-c2ccc([N+](=O)[O-])cc2)s1
  A: 0; B: 2; C: i; D: -44; E: -8; F: -10; G: -11; H: 2

mol: CCOc1ccc(CCNC(=O)c2nnn(CC(=O)Nc3ccc(OC)c(OC)c3)c2N)cc1OCC
  A: 0; B: -2; C: i; D: 1; E: -2; F: 6; G: ·; H: -12

mol: CCn1ncc(C2=NOC(C(=O)Nc3c(C)n(C)n(-c4ccccc4)c3=O)C2)c1C (stereo not given)
  A: -2; B: 6; C: i; D: -4; E: 11; F: -12; G: -20; H: 8

mol: CC1CCC2(CC1)NC(=O)N(CC(=O)Nc1ccc(C(N)=O)cc1)C2=O (stereo not given)
  A: 1; B: 2; C: ·; D: ·; E: ·; F: -14; G: -37; H: ·

mol: CCCC(=O)Nc1nc(-c2ccc3c(c2)OCCO3)cs1
  A: -3; B: -8; C: ·; D: -73; E: 35; F: 13; G: -16; H: 7

mol: CCC/C=C/c1ccc(CN2C(CC(C)C)C(=O)N(Cc3cn(CC4CCCCC4)nn3)CCS2(=O)=O)cc1 (stereo not given)
  A: 1; B: -1; C: ·; D: 89*; E: ·; F: ·; G: -6; H: ·
